# Screening results: PubChem BioAssay, ICCB-Longwood Screening Facility, Harvard Medical School
# AID504770 – growth inhibition of E. coli YBA685, primary screen, V. cholerae RctB inhibitors. E. coli YBA685 rctB-dependent plasmid, OD600 growth, 3 h; hits give low values. z-score (no concentration beside the values). AID 504770, 2011. hit rate 0.27% among 130,000;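 active means z-score under -2 on both plates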;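 further: wells of about 30 µL received 100 nL stock; score is relative to mean and SD of the test wells; the first replicate is given; strong numbers were not always called active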
# Ba CapD inh – Bacillus anthracis CapD inhibitors, primary screen, biochemical, fluorescence intensity | CapD gamma-glutamyltranspeptidase (Bacillus anthracis Ames Ancestor) | purified CapD enzyme, fluorescence intensity read-out; hits give low values; some hits fall short of the stated cut | z-score (concentration not given with the values) | hit rate 0.23% among 140,000;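 active means z-score under -4 in either of two replicates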;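 further: stock transfer was 100 nL into about 40 µL; score is relative to mean and spread of the plate; one replicate is shown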
# * = called active by the depositor; . = no result given. The list is partial, so the mix of outcomes need not match the whole.
# The first 2 records as a preview:
canonical_smiles	Ba CapD inh	AID504770
Cc1noc(C)c1CN1c2cccc3cccc(c23)S1(=O)=O	.	-0.2
O=C(NC1CCCc2ccccc21)C1CCN(S(=O)(=O)c2cccs2)CC1 (centres undefined)	-0.28	-0.3

# The whole of this part (from the top)
canonical_smiles	Ba CapD inh	AID504770
Cc1noc(C)c1CN1c2cccc3cccc(c23)S1(=O)=O	.	-0.2
O=C(NC1CCCc2ccccc21)C1CCN(S(=O)(=O)c2cccs2)CC1 (centres undefined)	-0.28	-0.3
Cn1cnc2nc(SCC(=O)O)[nH]c(=O)c21	-0.065	.
Cc1noc(C)c1/C=C/C(=O)O	.	-1.1
Cc1cc(C)nc(Nn2c(SCc3cccc(F)c3)nc3ccccc3c2=O)n1	-0.72	.
CC1CCN(C(=O)CN(c2ccccc2)S(C)(=O)=O)CC1	.	0.8
Cc1ccc(-c2nnc(Sc3nc4ccccc4s3)c3ccccc23)cc1S(=O)(=O)N(C)C	-0.07	.
CC1CCN(C(=O)c2nn(C)c3c2CCc2sccc2-3)CC1	1.5	-0.55
CCN(C(=O)Cc1ccccc1OC)c1nnc(-c2ccncc2)s1	.	-0.2
CC(C)(C)c1cc2nc(-c3ccccc3)cc(=O)n2[nH]1	1.3	-0.1
CC(=O)N/N=C(\C)c1ccc2c(c1)OCCO2	.	-0.3
CCn1cc(C(=O)N2CCN(c3ccccc3)CC2)c(=O)c2cc(S(=O)(=O)N3CCCCC3)ccc21	-0.88	0.2
COc1ccc(C2CC(=O)C3=C(C2)Nc2ccccc2NC3c2ccc(C(F)(F)F)cc2)cc1OC (centres undefined)	-1	.
Cc1ccc(Nc2c(-c3ccco3)nc3ccccn23)cc1	72	-0.05
N#CC(C#N)=NNc1ccc(F)cc1C(F)(F)F	-2.5	-0.7
CSc1nc2ccc(NC(=O)c3ccccc3F)cc2s1	-0.25	-0.85
CCCCOC(=O)COc1ccc2c(=O)c(Oc3ccccc3Br)coc2c1	-0.32	.
COc1cc(/C=N/NC(=O)c2ccc3nonc3c2)ccc1OCc1ccc([N+](=O)[O-])cc1	-1.1	.
COc1ccc(-n2cnc3nc(C)c(C(C)=O)c(-c4ccccc4)c32)cc1	-0.51	.
CC(C)N1C(=O)/C(=C\c2ccc(C(F)(F)F)cc2)SC1=S	0.56	0.65
CCOc1ccc(Br)cc1S(=O)(=O)n1nnc2ccccc21	-0.99	.
CCOC(=O)C1CCCN(C(=O)c2ccc3nc(-c4ccc(OC)c(OC)c4)c(-c4ccc(OC)c(OC)c4)nc3c2)C1 (centres undefined)	-0.39	.
O=C1N(Cc2ccccc2)C(c2ccccc2)C1(F)F (centres undefined)	0.57	0.75
C=CCn1c(COc2ccc(CC)cc2)nnc1SC(C)C	.	-0.35
O=C(O)c1ccc(N=NN2CCCC2)cc1	-3.3	-0.55
Nc1sc2c(c1-c1nc3ccccc3s1)CCCC2	0.84	-0.25
O=c1oc2ccc(Cl)cc2cc1-c1nnc(-c2ccc([N+](=O)[O-])cc2)o1	0.45	.
CCOC(=O)Cn1cc(Br)c(=O)[nH]c1=O	0.32	-0.6
CCOc1cc(CN2CCN(C)CC2)ccc1OCC(=O)Nc1cccc(C(F)(F)F)c1	.	-0.15
Cc1ccc(C)n1-c1cc(S(=O)(=O)N2CCOCC2)ccc1N1CCCC1	.	1.8
O=C(Nc1nc2ccc(Br)cc2s1)c1c(O)c2c(n(Cc3ccccc3)c1=O)CCCC2	2.9	.
CC(C(=O)c1ccccc1)C1(O)C(=O)N(CCc2ccccc2)c2ccccc21 (centres undefined)	0.36	-0.05
COc1ccc2c(c1)CCC(=O)C2	0.66	-1.1
O=C(Nc1ncccn1)C1c2ccccc2Oc2ccccc21	-0.23	-0.5
COC(=O)N(c1cc(Cl)cc(Cl)c1)c1nc(C)cc(C)n1	-0.035	.
Cc1oc(C(C)(C)C)cc1-c1cc(NC(=O)C2CCC2)n(-c2ccc(I)cc2)n1	0.52	0.3
COc1ccccc1NC(=O)CCc1c(C)nc2nc(CNC(=O)OC(C)(C)C)nn2c1C	-0.28	0.2
CC[N+](C)(C)Cc1ccco1	.	-0.45
Cn1cccc1CN1CCN(C(=O)c2cccc(F)c2)CC1	0.06	-0.5
CCN(CC)S(=O)(=O)c1ccc(NN=c2c(=O)c3ccccc3c2=O)cc1	.	-0.25
O=C(O)C(Cc1ccccc1)N=Cc1c(O)c2ccccc2oc1=O (centres undefined)	-1.1	-1.1
CCCCNC(=O)c1ccccc1O[C@@H]1O[C@H](COC(C)=O)[C@@H](OC(C)=O)[C@H](OC(C)=O)[C@H]1NC(C)=O	0.82	.
NNC(=O)C(O)(c1ccccc1)c1ccccc1	-0.12	1.2
Cc1ccc(SC(C)C(=O)NCC2CCCO2)cc1 (centres undefined)	-0.035	-0.8
O=c1/c(=C/c2cc(Br)cc([N+](=O)[O-])c2O)sc2nc3ccccc3n12	-0.27	.
CC(=O)N1CC(=O)N(OCC(O)COc2ccccc2)C1c1ccc(Cl)cc1Cl (centres undefined)	-0.11	.
Cn1c(CC(=O)Nc2ccc(Cl)cc2)nnc1SCc1nc2ccccc2c(=O)[nH]1	.	2.4
CCC(=O)Nc1cccc(NC(=O)COc2cc(C)cc(C)c2)c1	-0.95	1.7
CC1(C)c2ccccc2N(c2ccccc2)C12C=Cc1cc([N+](=O)[O-])cc(Cl)c1O2 (centres undefined)	-1.1	.
Cc1ccccc1OCc1nc2c3cnn(C)c3ncn2n1	-0.17	-1.3
COc1ccccc1N1CCN(C(=O)CSc2nc3ccccc3c(=O)n2Cc2ccc3c(c2)OCO3)CC1	-0.52	.
CC(NC(=O)c1nn2c(c1Br)NC(c1cccs1)CC2C(F)(F)F)c1ccccc1 (centres undefined)	-0.46	.
COc1ccccc1C(=O)Nc1cc2c3c(c1)C1CCCC1CN3CC1CCCC21 (centres undefined)	-0.29	.
Cc1cccc2cc(CNCC3CCCO3)c(Cl)nc12 (centres undefined)	.	-0.75
COC(=O)c1ccc(-c2ccco2)[nH]1	-0.17	-0.25
COC(=O)c1c2c(c3ccccc3c1O)OC(c1ccc(OC)cc1)(c1ccc(OC)cc1)C=C2	0.51	.
CCSc1nc2c(c(=O)[nH]c(=O)n2C)n1C	.	-0.35
CN(C)c1ccc(C(CC(=O)O)NC(=O)c2ccc(Cl)cc2)cc1 (centres undefined)	.	2.5
CC(C)N(C(=O)CSc1nnc(CSc2ncccn2)n1C)C(C)C	.	-0.65
COc1ccc(CCNC(=O)c2cn(CC(C)C)c(=O)c3cc(OC)c(OC)cc23)cc1OC	0.15	2

# New compounds follow.
canonical_smiles	Ba CapD inh	AID504770
O=C(NCc1ccncc1)c1cc2cccnc2nc1C(F)(F)F	0.12	.
CCOC(=O)CC(=O)Nc1ccsc1C(=O)OC	12	0.1
COc1cc(C(=O)N(Cc2cccnc2)Cc2ccc(C)o2)cc(OC)c1OC	-1.9	1.3
COc1ccc(C(C#N)N2CCN(C(C#N)c3ccc(OC)cc3)CC2)cc1 (centres undefined)	-0.34	2
CCCCC(=O)Nc1nnc(-c2ccc(Cl)cc2)o1	.	-0.15
COc1ccc(C2CC(=O)C3=C(C2)Nc2ccccc2NC3c2cc([N+](=O)[O-])ccc2Cl)cc1OC (centres undefined)	-0.77	.
OCC1(CO)COC(c2cccnc2)N1 (centres undefined)	.	-0.25
CCCCn1nnnc1SCC(=O)NCc1ccccc1	.	0.3
O=C(Sc1ccccc1)c1cccnc1Oc1ccccc1	0.4	1.8
CC1(C)CC(NCc2ccccc2F)CC(C)(C)N1	0.43	0.5
COc1ccc(OC)c(NC(=O)c2n[nH]n3c2nc(=O)c2ccccc23)c1	-0.41	-0.8
CSc1cc(-c2ccc(Cl)cc2)nc(-c2cccs2)c1	3.6	1.1
COc1ccccc1NCC(=O)N/N=C1\CCS(=O)(=O)c2ccc(F)cc21	.	-0.8
CCc1ccc(NC(=O)Nc2nnc(N3CCCCC3C)s2)cc1 (centres undefined)	-0.47	-1.5
Cc1ccc(C)c(NS(=O)(=O)c2cc(S(=O)(=O)Nc3cc(C)ccc3C)c3cccc4c3c2NC4=O)c1	-0.45	.
CC(=O)C1SC(N)=C(C#N)C1c1ccc(Cl)c(Cl)c1 (centres undefined)	-0.19	.
C=CCOc1cc(=O)[nH]c2ccccc12	2	1.3
Cc1ccc(C)c(-n2nnnc2SCC(=O)N=c2sc3ccccc3n2C)c1	.	1.1
CCOC(=O)C1=C(CC(=O)Nc2ccc(OC)cc2)C(=O)N(c2ccc(F)cc2)C1C (centres undefined)	0.43	.
CCOc1ccc(N=C2SC(C(=O)O)CC(=O)N2CCc2ccc(OC)c(OC)c2)cc1 (centres undefined)	-0.99	.

# Complete entries, looked up by structure. Order of screens: Ba CapD inh	AID504770
# CCOc1ccc(N=C2SC(C(=O)O)CC(=O)N2CCc2ccc(OC)c(OC)c2)cc1 (centres undefined) is entered as -0.99	.
# Cc1ccc(C)c(-n2nnnc2SCC(=O)N=c2sc3ccccc3n2C)c1 is entered as .	1.1
# COc1ccccc1NCC(=O)N/N=C1\CCS(=O)(=O)c2ccc(F)cc21 is entered as .	-0.8
# Cc1ccc(C)c(NS(=O)(=O)c2cc(S(=O)(=O)Nc3cc(C)ccc3C)c3cccc4c3c2NC4=O)c1 is entered as -0.45	.
# CCCCC(=O)Nc1nnc(-c2ccc(Cl)cc2)o1 is entered as .	-0.15

# 3 entries from above, sorted by SMILES length, smallest number first.
canonical_smiles	Ba CapD inh	AID504770
CC1(C)CC(NCc2ccccc2F)CC(C)(C)N1	0.43	0.5
CCCCC(=O)Nc1nnc(-c2ccc(Cl)cc2)o1	.	-0.15
COc1ccc(C(C#N)N2CCN(C(C#N)c3ccc(OC)cc3)CC2)cc1 (centres undefined)	-0.34	2

# Further results follow:
canonical_smiles	Ba CapD inh	AID504770
Cc1ccc(-c2nc3cc(Cl)ccc3o2)cc1NC(=O)c1sc2ccccc2c1Cl	-1.2	.
CN(C)C(=O)COC(=O)c1ccccc1I	.	0.1
O=C1C=C(NC2CC2)C2(CCCCC2)O1	-0.05	0.65
CC1=NN(c2ccc(C(=O)NC(CC(N)=O)C(=O)OC(C)(C)C)cc2)C(=O)C1 (centres undefined)	-2.1	.
CC1=C(C(=O)Nc2cccc(F)c2)C(c2cccs2)C2=C(CC(C)(C)CC2=O)N1 (centres undefined)	25	.
CC1CC(C)CN(C(=O)c2cccs2)C1 (centres undefined)	0.025	-0.3
CC(C)NC(=O)C1(O)c2ccccc2NC(=O)N1c1ccc(Cl)c(Cl)c1 (centres undefined)	0.9	.
COC(=O)COc1c(C)[nH]ccc1=O	-0.075	.
COC(=O)CSc1ncn(-c2ccccc2)n1	.	0
COc1ccc(/C=C2\N=C(c3ccccc3Br)OC2=O)cc1OC(C)=O	-0.77	.
O=C(Nc1c(F)cccc1F)c1cccc(Oc2ccccc2)c1	-0.61	-0.15
CN(C)c1ccc(CNC(=O)CCC(=O)N2CCSc3ncccc32)cc1	-0.14	-0.15
CC1CC(=O)C2=C(C1)OC(N)=C(C#N)C2c1ccccc1 (centres undefined)	0.53	0.6
Cc1cc(C)c(C(=O)Nc2cccnc2)c(CC(C)(C)C(=O)O)c1	0.51	2.2
C[C@@H](NC(=O)c1cccnc1)c1ccccc1	-0.55	0
CC(C)(C)CC(=O)NC1CCCc2ccccc21 (centres undefined)	.	0.1
CCCN(CCC)C(=O)c1sc2nc(C)nc(N3CCN(c4ccccn4)CC3)c2c1C	-0.71	.
CCOC(=O)C1CCCCN1S(=O)(=O)c1ccc2c(c1)CCCC(=O)N2 (centres undefined)	0.54	0.2
N#CC1=C(SCC(=O)C23CC4CC(CC(C4)C2)C3)NC(=O)C(C#N)C12CCCCC2 (centres undefined)	-0.21	.
O=C(O)CCN1C(=O)CC2(CCCCC2)C1=O	-0.12	-0.1
O=C(c1cccc(C(F)(F)F)c1)c1c[nH]c(C(=O)NCC2CCCO2)c1 (centres undefined)	0.13	.
CSc1cccc(NC(=O)/C=C/C(=O)O)c1	0.12	.
CC(C)(C)C(=O)Nc1ccc2c(c1)CCN2S(C)(=O)=O	-0.65	.
Nc1nc(SCc2cccnc2)[nH]c(=O)c1NC(=O)c1ccco1	.	-0.7
O=C(Nc1cccc(F)c1C(=O)Nc1ccc(F)c(Cl)c1)c1cccs1	20	.
O=C(NCCC1=CCCCC1)c1ccc2c(c1)ncn2-c1cccc(F)c1	-0.34	-0.05
O=C(O)c1ccc(S(=O)(=O)N(Cl)Cl)cc1	0.32	0.55
CCc1ccc(-c2ccc(Br)cc2)nc1	0.21	-0.65
CCOC(=O)c1c2ccc(O)cc2n2ccccc12	-1	-0.15
CC(C)(CC(=O)O)CC(=O)NC1CCCCNC1=O (centres undefined)	0.24	-0.95
CC(c1ccccc1)N1CCN(C(=O)OCCc2c[nH]c3ccccc23)CC1 (centres undefined)	-0.49	.
CN(C)S(=O)(=O)c1ccc2c(c1)C(=O)c1cc(S(=O)(=O)N(C)C)ccc1-2	.	-0.2
O=C(CCC(=O)N1CCOc2ccccc21)N1CCN(c2ccccc2)CC1	0.62	0
COc1ccc(OC)c(C2C(C(=O)OC3CCCC3)=C(C)NC3=C2C(=O)CC(c2cccs2)C3)c1 (centres undefined)	4	.
O=C(CN1CCC(Cc2ccccc2)CC1)Nc1ccc2c(c1)OCCO2	.	-0.4
CCOC(=O)CSc1nc2c(c(=O)n1-c1ccc(C)cc1)C1(CCCC1)Cc1ccccc1-2	13	.
Cc1cc(C)n(CCOc2nonc2N)n1	.	-1.2
O=C(c1cccc2ccccc12)N1CCOCC1	.	0.25
Cc1cc2cc(CNC(=O)/C=C\c3ccccc3)ccc2n1C	-0.23	0.55
